Screening data as filed in PubChem.
Six1-Eya2 blk: inhibitors of human Six1/Eya2 interaction; activity change, % (test concentration not listed); AlphaScreen GST-Six1/His-Eya2 binding, biochemical; hits give low values; control for the full effect not named in the record; 360,000 tested, 0.56% active; in the data active = activity change below about -65%; inconclusive = about -30% to -65%; inactive = above about -30%; also: % is scaled to controls: 0 for no effect and ±100 for the full control effect; compound concentration not given in the record
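Six1/Eya2 binding was read as AlphaScreen signal after compounds were pinned into GST-Six1 plus His-tagged Eya2 (5X stock 250/500 nM) in pH 8.0 Tris/NaCl/TCEP buffer, beads added, then incubated 1 h, 37 C, dark.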
PINK1 modulator: PINK1 expression modulation; PINK1 immunofluorescence, high-content cytometry, 24 h; Potency, µM (titrated, usually from 76.6 µM), for the others: at the top dose activation (PINK1 increase), hits mostly activators; 410,000 tested, 0.2% active; AID 624263; active = well fitted activation curve with a large enough effect; inconclusive = small, poorly fitted or top-dose-only effect; inactive = flat fitted curve, though single readings scatter; cell line not stated here;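 also: potency is read from the fitted curve at half-maximal effect; % of control where 0% means no effect; nearly all actives have a fitted effect of over 65% in size; a mitochondrial uncoupler was the plate control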
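Cells are seeded, rested 12 hours, then given compound at five concentrations or DMSO for 24 hours. After fixation, blocking and antibody staining, PINK1 amount and mitochondrial localization are scored; CCCP serves as control.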
TRPML1 inh: human mucolipin-1 channel inhibition; Q9GZU1; TRPML1-inducible cells, Ca2+ dye fluorescence, FDSS; hits give low values; inhibition of EC80 agonist-evoked calcium signal; activity change, negative = inhibition, % (no concentration beside the values); 390,000 tested, 0.02% active; in the data active means activity change below about -50%; inconclusive means about -30% to -50%; inactive means above about -30%;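 also: stimulus is agonist 54-4 at its EC80 concentration; % is scaled to controls: 0 for no effect and ±100 for the full control effect; compound concentration not given in the record; the text of the record puts the active cut at -80%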
Target sequence (Q9GZU1 whole entry, looked up): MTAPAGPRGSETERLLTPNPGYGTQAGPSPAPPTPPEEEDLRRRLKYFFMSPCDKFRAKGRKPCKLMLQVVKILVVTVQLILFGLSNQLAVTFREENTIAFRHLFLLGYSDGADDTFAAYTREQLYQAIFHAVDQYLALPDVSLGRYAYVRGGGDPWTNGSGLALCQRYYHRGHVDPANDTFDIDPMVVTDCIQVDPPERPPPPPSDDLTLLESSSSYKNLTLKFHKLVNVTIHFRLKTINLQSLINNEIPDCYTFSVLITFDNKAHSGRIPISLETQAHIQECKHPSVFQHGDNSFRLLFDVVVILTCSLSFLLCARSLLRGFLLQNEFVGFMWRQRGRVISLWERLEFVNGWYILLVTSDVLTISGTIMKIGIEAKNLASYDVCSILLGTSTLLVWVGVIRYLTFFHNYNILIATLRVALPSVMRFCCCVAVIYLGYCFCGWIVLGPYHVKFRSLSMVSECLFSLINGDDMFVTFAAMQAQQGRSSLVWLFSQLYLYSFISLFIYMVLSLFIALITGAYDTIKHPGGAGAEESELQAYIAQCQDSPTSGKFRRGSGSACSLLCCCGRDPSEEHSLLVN
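Tet-induced TRPML1-DL cells loaded with Ca8 no-wash calcium dye were read kinetically on FDSS. Compound addition was followed by EC80 agonist 54-4 (4 uM final); inhibition was read over 110 s.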
TRPML1 agonist: activates the human TRPML1 channel; TRPML1-expressing cells, Ca2+ dye fluorescence, FDSS; host cell line not named in the record; reference of the full effect not given here; activation, % (test concentration not listed); Q9GZU1; 410,000 tested, 0.12% active; in the data active = activation above about 50%; inconclusive = about 30% to 50%; inactive = below about 30%; also: 0% is about no effect; the text of the record puts the active cut at 80%
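Kinetic FDSS Ca2+ read in Tet-induced TRPML1-DL cells (ABD Ca8 dye plus quencher, 45-90 min RT loading): baseline, then compound, then 110 s agonist window; EC80 agonist 54-4 at 4uM final added afterwards for a 110 s antagonist window.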
D2 ag: agonists of human D2 dopamine receptor (beta-arrestin); 360,000 tested, 0.084% active; AID 624465; activation, % (test concentration not listed); DiscoveRx PathHunter D2 beta-arrestin, luminescence, 90 min; 100% = 57 uM dopamine signal; in the data active = activation above about 40%; inconclusive = about 15% to 40%; inactive = below about 15%; also: compound concentration not given in the record; the text of the record calls up to 30% inactive
Target sequence (P14416 whole entry, looked up): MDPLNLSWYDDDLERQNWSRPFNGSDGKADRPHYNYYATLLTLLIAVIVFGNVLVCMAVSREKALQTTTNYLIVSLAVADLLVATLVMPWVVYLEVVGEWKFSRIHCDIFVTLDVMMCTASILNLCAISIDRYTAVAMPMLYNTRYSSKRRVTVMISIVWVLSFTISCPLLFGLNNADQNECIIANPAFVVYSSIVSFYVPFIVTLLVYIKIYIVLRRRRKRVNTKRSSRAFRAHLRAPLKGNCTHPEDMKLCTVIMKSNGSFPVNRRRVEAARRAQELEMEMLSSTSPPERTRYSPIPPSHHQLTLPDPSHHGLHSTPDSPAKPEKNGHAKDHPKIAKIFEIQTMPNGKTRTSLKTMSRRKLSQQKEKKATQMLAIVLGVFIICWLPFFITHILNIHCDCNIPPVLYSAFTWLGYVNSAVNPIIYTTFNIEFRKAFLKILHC
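Agonist mode: compounds alone added to overnight-plated D2 PathHunter cells for 90 min at 37 C, with 57 uM final dopamine (EC100) defining full response. Beta-arrestin recruitment detected by chemiluminescent reagent, read after 1 h at ambient temperature.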
D2 potentiator: potentiates the human D2 dopamine receptor allosterically; 360,000 tested, 0.23% active; potentiation, % (test concentration not listed); AID 624464; P14416; DiscoveRx D2 beta-arrestin cells, luminescence, 90 min; 100% = 57 uM dopamine signal; active = potentiation of 50% or more; inconclusive = 30% to 50%; inactive = 30% or less;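 also: compound concentration not given in the record; tested on top of an EC20 dose of dopamine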
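PathHunter D2 cells, attached overnight at 37 deg C, received compound in DMSO plus dopamine at EC20 (50 nM final) for 90 min at 37 deg C. Beta-arrestin recruitment was read as luminescence after 1 h with detection reagent at ambient temperature.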
Numbers without * were called inactive; ? = inconclusive; . = not tested or not shown.

SMILES	Six1-Eya2 blk	PINK1 modulator	TRPML1 inh	TRPML1 agonist	D2 ag	D2 potentiator
COc1ccc(/C=N/NC(=O)CN(C)S(=O)(=O)c2ccc(NC(C)=O)cc2)cc1	2	-1.2%	0	-0.9	0.6	-4
O=C1c2ccccc2-c2nc3ncnn3c(-c3ccccc3Cl)c21	-4	0.0%	-1	1.0	-0.8	0
COc1cc2nc(NC(=O)c3ccc(Cl)cc3)sc(=O)c2cc1OC	2	8.8%	1	-0.2	-1.5	-8
O=C(COc1ccc(/C=N/NC(=O)c2ccncc2)cc1)Nc1ccccc1	-5	9.1%	18	0.2	-1.0	3
CC(C)(C)NCc1cc(Cl)ccc1OCc1cccs1	21	3.6%	-1	1.7	-4.0	-15
O=[N+]([O-])c1ccc(N2CCN(C(=S)c3cccc([N+](=O)[O-])c3)CC2)cc1	-1	0.9%	15	1.0	1.0	-4
CCOC(=O)c1[nH]c(C)c(C(=O)Nc2cc(Cl)ccc2C)c1C	0	?	3	1.0	0.4	-4
N#CCc1ccc(NS(=O)(=O)c2ccc(N3CCCC3=O)cc2)cc1	-4	1.8%	25	0.8	9.0	1
COc1ccc(NC(=S)N2CCN(Cc3ccc(C)cc3)CC2)cc1	-12	0.0%	10	1.0	0.2	10
O=C(NC1CCOC1)c1ccc(OC2CCN(CCc3ccccc3)CC2)cc1 (stereo unspecified)	9	1.7%	15	-0.2	-6.5	-17
CC1CCCCN1C(=O)CSc1n[nH]c(-c2ccccc2)n1 (stereo unspecified)	.	-0.1%	-6	16	.	.
COCCN(C(=O)COC(=O)CC(C)c1ccccc1)c1c(N)n(Cc2ccccc2)c(=O)[nH]c1=O (stereo unspecified)	-2	-2.3%	-2	-0.3	-3.2	-6
CNS(=O)(=O)c1cc(-c2nn3c(C)nnc3c3ccccc23)ccc1C	.	1.2%	24	-1.0	.	.
CCOC(=O)C1=C(C)NC(=S)NC1c1ccc(-c2cccc(Cl)c2C)o1 (stereo unspecified)	-3	13%	28	0.7	3.6	4
O=C(c1cc2ccccc2o1)N1CCN=C1SCc1cccc(F)c1	4	2.1%	62	-0.2	-2.9	-1
Cc1ccc(-c2csc(-c3c[nH]c4ccccc34)n2)cc1	-6	4.5%	-4	-0.6	-2.9	4
CCCCN1CC(=O)N2[C@H]3c4ccccc4OC[C@@H]3[C@H](c3ccccc3)[C@]2(C)C1=O	-1	0.6%	-8	0.2	-3.2	-13
O=C(O)C1C2C=CC(C2)C1C(=O)NC1CCS(=O)(=O)C1 (stereo unspecified)	7	2.6%	-16	-0.3	-4.2	-7
O=C(c1cc(C2CCCCN2S(=O)(=O)Cc2ccccc2)on1)N1CCOCC1 (stereo unspecified)	4	-0.1%	.	-0.8	-5.9	-1
Cc1cc2sc(C(=O)O)c(C)c2s1	-4	-2.7%	21	0.1	-0.5	-24
COc1ccc(S(=O)(=O)Nc2cc(C)c(O)cc2C(C)C)cc1	7	-3.7%	7	11	3.2	9
CCOc1ccccc1OCc1nn2c(-c3ccc(C)cc3)nnc2s1	-4	.	-10	2.7	-0.3	1
O=c1nc(N/N=C/c2c[nH]c3ccccc23)cn[nH]1	-78*	-2.7%	-14	0.5	-3.6	-1
O=C(Nc1ccc(S(=O)(=O)N2CCc3ccccc32)cc1)C(F)(F)F	3	-1.3%	21	1.0	8.2	2
COc1ccc(CCNC(=O)CN2CCC(n3nnc4cc(F)ccc43)CC2)cc1OC	0	.	24	-0.1	-0.5	-35

Marked active in Six1-Eya2 blk, of those listed so far:
Structure,Six1-Eya2 blk,TRPML1 inh,D2 ag,D2 potentiator
O=c1nc(N/N=C/c2c[nH]c3ccccc23)cn[nH]1,-78*,-14,-3.6,-1

The list continues:
SMILES	Six1-Eya2 blk	PINK1 modulator	TRPML1 inh	TRPML1 agonist	D2 ag	D2 potentiator
COc1ccc([C@H]2CC(=O)C=C(c3ccc(NC(C)=O)cc3)C2)cc1OC	5	1.0%	0	-0.4	1.1	1
COc1ccccc1N1CCN(C(c2cccs2)C(C)NC(=O)C(=O)N2CCCCC2)CC1 (stereo unspecified)	-2	1.5%	-1	-1.0	-0.8	-22
O=C(/C=C/c1cccc(C(F)(F)F)c1)OCC(=O)N1CCN(c2ccccc2)CC1	-5	3.0%	5	0.1	-2.7	-7
CN(N)C(=S)NCc1ccccc1	19	-3.1%	-3	-0.2	-5.0	-4
Cc1ccc(C2=NS(=O)(=O)N(C)C(C(=O)Nc3ccc(F)cc3F)=C2)cc1	-15	5.7%	19	0.3	-7.6	-11
COc1cc(S(=O)(=O)n2ccnc2)ccc1Br	3	2.1%	-9	0.2	0.8	-7
CCn1c(-c2csc(-c3ccccc3)n2)n[nH]c1=S	3	2.0%	-1	2.8	-3.0	-4
CCN(CC)CCN(C(=O)c1ccc2c(c1)CCCC2)c1nc2cc(OC)c(OC)cc2s1	-21	?	14	0.5	1.5	-40
CCCC1CC(C)(/C(C)=N\NC(N)=S)OC1=O (stereo unspecified)	0	1.0%	10	-0.6	-2.0	-4
COc1cc2[nH]c(=S)nc(NC3CCCCCC3)c2cc1OC	-71*	-1.7%	-12	-0.7	-3.5	-18
CC(C)c1nc(SCC(=O)N2CCCC2)c2ccccc2n1	4	-5.1%	-2	-0.5	-0.9	-5
Cc1ccc(C2C(C#N)C(C#N)N3CCCN23)cc1 (stereo unspecified)	0	1.7%	-6	-0.3	-4.2	-8
CCN(CC)S(=O)(=O)c1ccc2c(c1)nc(SCn1nnc3ccccc3c1=O)n2CC	6	3.1%	-8	-1.2	-0.3	13
CCNC(=O)C1(C)CCCN1C(=O)c1ccc(C#N)cc1 (stereo unspecified)	4	0.7%	.	0.1	-3.4	-4
CCOC(=O)c1c(NC(=O)C2CCCN(S(=O)(=O)c3ccc(C)cc3)C2)sc2c1CCCC2 (stereo unspecified)	-7	6.6%	-11	0.3	-4.0	-16
CC(C)(C)OC(=O)C[C@@H]1C/C=C\C[C@H](CC(=O)N(CCO)Cc2ccccc2)C(=O)N[C@@H](Cc2c[nH]c3ccccc23)COC1=O	-8	0.1%	13	-0.6	-4.9	-1
CCc1cccc(C)c1NC(=S)N(CCCN1CCOCC1)Cc1cccnc1	2	-0.3%	13	0.9	-2.4	-3
COC(=O)CCNC(=O)c1ccc2[nH]c(C)c(C)c2c1	-7	5.0%	5	0.0	-0.8	-5
COc1ccc(CN2CCC(CNC(=O)NC3CCCCC3)CC2)cc1	1	-1.6%	3	1.2	-2.1	-6
C=CCn1c(-c2ccco2)n[nH]c1=S	0	-0.1%	3	-0.6	3.3	-6
O=C(CC[C@H]1O[C@@H](n2cnc3c(NC(=O)c4ccccc4)ncnc32)[C@H](O)[C@@H]1O)N[C@@H](CO)Cc1c[nH]c2ccccc12	-8	0.0%	.	-0.4	-2.6	-2
COc1ccc(/C=N/NC(=O)c2ccn[nH]2)cc1Cn1nc(C)c([N+](=O)[O-])c1C	-2	-0.3%	3	1.0	-9.9	26
O=C(CC(=O)c1ccncc1)c1ccccc1	-4	-2.0%	10	0.8	2.7	-27
COc1cc(/C=N\Nc2nc(-c3cccs3)c(NC(C)=O)s2)ccc1O	-16	-0.4%	9	0.3	9.1	17
Cc1cc(C(F)(F)F)c(C#N)c(=O)[nH]1	7	0.1%	43	-0.1	4.6	0

Some of these compounds in order of their number in D2 ag, ascending.
Molecule,Six1-Eya2 blk,TRPML1 inh,D2 ag,D2 potentiator
O=C(c1cc(C2CCCCN2S(=O)(=O)Cc2ccccc2)on1)N1CCOCC1 (stereo unspecified),4,.,-5.9,-1
O=C(CC[C@H]1O[C@@H](n2cnc3c(NC(=O)c4ccccc4)ncnc32)[C@H](O)[C@@H]1O)N[C@@H](CO)Cc1c[nH]c2ccccc12,-8,.,-2.6,-2
COc1ccc(CN2CCC(CNC(=O)NC3CCCCC3)CC2)cc1,1,3,-2.1,-6
CC(C)c1nc(SCC(=O)N2CCCC2)c2ccccc2n1,4,-2,-0.9,-5
COc1ccccc1N1CCN(C(c2cccs2)C(C)NC(=O)C(=O)N2CCCCC2)CC1 (stereo unspecified),-2,-1,-0.8,-22
CCOc1ccccc1OCc1nn2c(-c3ccc(C)cc3)nnc2s1,-4,-10,-0.3,1

(listing goes on)
SMILES	Six1-Eya2 blk	PINK1 modulator	TRPML1 inh	TRPML1 agonist	D2 ag	D2 potentiator
CCc1ccc(NC(=O)Nc2cc(C(=O)NCC3CCCO3)ccc2N2CC3CC(C2)c2cccc(=O)n2C3)cc1 (stereo unspecified)	1	0.6%	27	0.8	2.5	6
CCSc1nnc(NC(=O)C2CCN(S(=O)(=O)c3cc(C(F)(F)F)ccc3Cl)CC2)s1	10	?	16	0.9	-0.2	-4
CSc1ccccc1OCc1cc(C(=O)NCCC2CCCCO2)no1 (stereo unspecified)	3	4.9%	27	1.2	0.8	-26
Cc1ccc(S(=O)(=O)c2nc(S(C)(=O)=O)sc2N(C)C)cc1	8	-0.9%	24	-0.2	-2.2	-11
Cn1nnc2c(N3CCCCC3)nccc21	4	1.0%	7	1.6	1.2	-17
Cc1ccc(NC(=O)C2CCC(CNC(=O)[C@@H]3Cc4ccccc4CN3)CC2)cc1 (stereo partly specified)	9	-0.1%	33	3.7	-5.7	-16
COc1cc(/C=C2/SC(=S)N(Cc3ccccc3)C2=O)ccc1OCC(=O)O	-18	0.4%	8	-0.3	-3.0	-2
CC(=O)c1ccc(NC(=O)c2cccc(N3C(=O)c4ccccc4C3=O)c2)cc1	7	-2.1%	6	0.4	-2.0	-4
O=C(Nc1noc2ccccc12)c1cccc(F)c1	.	0.3%	-7	0.3	.	.
Nc1ccc2c(c1)OC1(CCCCC1)O2	-9	0.0%	-20	0.0	1.0	2
O=C(COC(=O)/C=C/c1ccco1)Nc1ccc(F)cc1Cl	-5	4.6%	19	-0.6	-0.6	-3
Cc1ccc(C(=O)Nc2nc3ccccc3[nH]2)cc1	-3	5.4%	-14	0.2	2.5	-8
NC(=O)CC(NC(=O)c1ccc(Br)cc1)c1ccc(N2CCN(c3ccccc3)CC2)c([N+](=O)[O-])c1 (stereo unspecified)	-2	2.1%	7	-0.7	-0.1	-6
C=Cc1ccc(Cn2c(C)c(CNCCc3ccccc3C)c(C(=O)O)c2C)cc1	.	8.6%	32	1.3	.	.
Cc1ccsc1/C=N/NC(=O)C(=O)NCC(C)C	9	-1.3%	-2	-0.4	-3.5	-21
CCOc1ccc(C(=O)NCC(=O)N2CCN(Cc3ccccc3)CC2)cc1	-4	1.4%	10	0.2	-0.7	-9
O=C(O)c1cc(-c2ccccc2)nn1CC1CC(c2cccnc2)=NO1 (stereo unspecified)	5	3.0%	6	-0.8	-1.7	15
CC(C)(C)c1cc(CP(=O)(c2ccccc2)c2ccccc2)cc(C(C)(C)C)c1O	2	24%	35	3.3	4.0	3
C=CCc1ccccc1OCC(O)CNC(=O)c1ccccc1C(=O)O (stereo unspecified)	2	-0.1%	-21	1.3	-4.9	-5
NS(=O)(=O)c1ccc(NC(=O)COC(=O)CCNC(=O)NC23CC4CC(CC(C4)C2)C3)cc1	1	-0.1%	-8	0.0	-1.9	-6
